Ecoli rRNA inh: reduced GFP signal of wild-type E. coli, primary screen, bacterial rRNA inhibitor project, GFP/RFP fluorescence, OD600, single point; E. coli WT GFP vs humanized-ribosome RFP mutants, 24 h; stronger effect = lower value; DMSO median 0, no signal -100; GFP signal change (wild-type ribosome), % (no concentration beside the values); actives 1.6% (n = 350,000); AID 720706, 2013;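 active means significant combined selectivity score with lowered wild-type GFP, culture density cut under 30%, mutant RFP and density less affected; inactive means any of these conditions unmet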; further: one replicate is shown; some compounds called inactive have numbers as strong as hits
ALR H2O2 inh: inhibitors of human ALR sulfhydryl oxidase, primary screen, biochemical, H2O2 detection, HRP-luminol luminescence, single point; purified ALR, DTT oxidation; AID 485317, 2010; inhibition, % (test concentration not listed); FAD-linked sulfhydryl oxidase ALR (Homo sapiens), P55789; actives 3.8% (n = 290,000);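 active means mean and each replicate at 75% or more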;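 further: stock transfer was 7.5 nL into about 7.5 µL; 0% = neutral wells and 100% = wells with inactivated enzyme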
Target sequence (P55789 whole entry, looked up): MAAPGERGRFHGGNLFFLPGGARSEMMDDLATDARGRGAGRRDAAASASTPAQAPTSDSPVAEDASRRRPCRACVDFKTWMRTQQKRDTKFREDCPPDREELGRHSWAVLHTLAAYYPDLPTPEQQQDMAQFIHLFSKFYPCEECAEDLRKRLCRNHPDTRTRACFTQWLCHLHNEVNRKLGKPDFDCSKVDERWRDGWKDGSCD
UCH37 DUB inh: inhibitors of human UCH37 deubiquitinase, primary screen, biochemical, Ub-AMC cleavage, fluorescence | Ubiquitin carboxyl-terminal hydrolase isozyme L5 (Homo sapiens), Q9Y5K5 | purified proteasome/UCH37 | inhibition, % (concentration not given with the values) | actives 0.33% (n = 330,000) | AID 588478, 2011;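 active means mean of two replicates above 20%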;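 further: 0% = compound-free wells with enzyme and 100% = wells lacking proteasome; stock transfer was 100 nL into about 20 µL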
Target sequence (Q9Y5K5 whole entry, looked up): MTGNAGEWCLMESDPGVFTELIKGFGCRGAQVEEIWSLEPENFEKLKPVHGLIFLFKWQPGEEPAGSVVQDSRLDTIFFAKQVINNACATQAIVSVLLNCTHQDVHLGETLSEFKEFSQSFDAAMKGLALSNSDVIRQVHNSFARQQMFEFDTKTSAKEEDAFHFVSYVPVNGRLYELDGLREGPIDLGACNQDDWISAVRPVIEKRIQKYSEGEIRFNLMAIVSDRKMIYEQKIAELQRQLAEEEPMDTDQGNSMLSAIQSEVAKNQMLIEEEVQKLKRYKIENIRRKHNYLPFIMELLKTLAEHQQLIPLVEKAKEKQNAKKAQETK
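Material: human UCH37 enzyme supplied as purified proteasome complex. Measure: % inhibition of Ub-AMC cleavage fluorescence. Medium: pH 7.4 Tris-HCl (50 mM) with ovalbumin, ATP-MgCl2, DTT. Times: 30 min preincubation with enzyme, 25 min cleavage at room temperature. Detection: AMC fluorescence intensity at 355/460 nm.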
B2AR ag: beta2AR agonists driving receptor internalization, primary screen, cell-based, FAP fluorogen, flow cytometry | response, % (no concentration beside the values) | Am2.2-beta2AR cells; reference of the scale not given here | Beta-2 adrenergic receptor (Homo sapiens), P07550 | actives 0.43% (n = 340,000);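 active means response above a set limit, near 3 SD of response in nonfluorescent compounds, cut at about 42% in these data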;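 further: stock transfer was 100 nL into about 11 µL; a reference agonist was the positive control; negative values mostly stem from fluorescent compounds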
FGF22 binding: binders of human FGF22 protein, primary screen, FGF22 synaptogenesis inhibitor project, biophysical, thermal shift, single point; recombinant FGF22 thermal shift, SYPRO orange fluorescence; percent of sucrose octasulfate shift, DMSO zero; calls only at 9.99 µM; actives 1.5% (n = 340,000); AID 651658, 2012;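 active means melting point raised past a set limit in the mean and every replicate; three in four hits are not shown here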
Target sequence (Q9HCT0 whole entry, looked up): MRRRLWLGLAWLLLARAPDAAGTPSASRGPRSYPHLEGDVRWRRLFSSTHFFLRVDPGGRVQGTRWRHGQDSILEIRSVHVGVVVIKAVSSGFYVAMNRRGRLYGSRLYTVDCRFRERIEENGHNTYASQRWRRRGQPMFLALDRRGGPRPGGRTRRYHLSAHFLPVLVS
E coli growth: E. coli growth inhibition, primary screen, OD600 | Escherichia coli growth, 23 h; stronger effect = lower value | OD600 absorbance (no concentration beside the values) | actives 0.21% (n = 330,000) | AID 1053175, 2014;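 active means OD600 absorbance below the run mean of sample wells minus 3.6 SD, in any replicate, cut at about 0.56 in these data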;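 further: stock transfer was 300 nL into about 60 µL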
HNF4A DNA FP: change in binding of human HNF4A to DNA, primary screen, biochemical, fluorescence polarization, FITC-DNA; Hepatocyte nuclear factor 4-alpha (Homo sapiens), P41235; 1 h; AID 1224865, 2016; actives 0.3% (n = 360,000); activity change, % at 10 µM; in the data active means activity change above about 30%, passing the limit was not always enough;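 further: controls were the assay level and a saturating level of protein; the project sought stronger binding though the title names inhibitors; some compounds called inactive have numbers as strong as hits; positive values seem to mean higher polarization but the record does not say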
Ecoli rRNA inh OD600: further read-out of Ecoli rRNA inh, marked with its call; OD600 change, %; measured here: OD600 growth;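 optical density of the mix in the first replicate; 0 = DMSO median and -100 = no signal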
Ecoli rRNA inh RFP: further read-out of Ecoli rRNA inh, marked with its call; RFP signal change, %; measured here: RFP humanized mutant strains;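 first replicate; 0 = DMSO median and -100 = no signal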
Active calls of the source: *. Some of the compounds tested; count on the stated rates, not on these rows.

CCc1ccc([C@@H]2CC=C(C(=O)O)[C@H](c3ccccc3F)N2S(=O)(=O)c2ccc(C)cc2)cc1 was read as Ecoli rRNA inh -18, ALR H2O2 inh 4, UCH37 DUB inh 3.5, B2AR ag -9, FGF22 binding inactive, HNF4A DNA FP -0.1, Ecoli rRNA inh OD600 -4 and Ecoli rRNA inh RFP -3.6.
`COc1ccc(/C=C(\C#N)C(=O)Nc2cc(S(=O)(=O)N3CCCCC3)ccc2N2CCCCC2)cc1` gave ALR H2O2 inh -12, UCH37 DUB inh 0.8, B2AR ag 3, E coli growth 0.7 and HNF4A DNA FP 0.2.
For CCOc1ccc(NC(=O)CN(C)C(=O)c2cccnc2Sc2ccc(C)c(C)c2)cc1OCC the results were Ecoli rRNA inh -6, ALR H2O2 inh -16, UCH37 DUB inh 1.7, B2AR ag 7, FGF22 binding inactive, E coli growth 0.65, HNF4A DNA FP 2.6, Ecoli rRNA inh OD600 -10 and Ecoli rRNA inh RFP -0.3.
For COc1ccc(NC(=O)CN2CCN(S(=O)(=O)c3cccs3)CC2)cc1Cl the results were Ecoli rRNA inh -2, UCH37 DUB inh 3.1, B2AR ag 3, FGF22 binding inactive, E coli growth 0.67, HNF4A DNA FP 4.8, Ecoli rRNA inh OD600 -20 and Ecoli rRNA inh RFP 7.2.
Screening Cc1ccc(-c2nnc(SCC(=O)NC3CCS(=O)(=O)C3)nc2-c2ccc(C)cc2)cc1 (stereo unspecified) returned Ecoli rRNA inh -33, ALR H2O2 inh -1, UCH37 DUB inh 1.1, B2AR ag 27, FGF22 binding inactive, E coli growth 0.67, HNF4A DNA FP -0.4, Ecoli rRNA inh OD600 -35 and Ecoli rRNA inh RFP -11.
For COc1ccc(/C=C/C(=O)CCC(=O)O)cc1 the results were Ecoli rRNA inh 10, ALR H2O2 inh 11, UCH37 DUB inh 2.5, B2AR ag -2, E coli growth 0.7, HNF4A DNA FP 1.1, Ecoli rRNA inh OD600 0 and Ecoli rRNA inh RFP 3.9.
`Cc1c(Nc2nc(-c3cccc([N+](=O)[O-])c3)cs2)c(=O)n(-c2ccccc2)n1C` gave Ecoli rRNA inh 9, ALR H2O2 inh 35, UCH37 DUB inh 0.8, B2AR ag -1, FGF22 binding inactive, E coli growth 0.67, HNF4A DNA FP -0.6, Ecoli rRNA inh OD600 4 and Ecoli rRNA inh RFP -0.5.
Screening Cc1cccc(N2CCN(S(=O)(=O)c3ccc4c(c3)NC(=O)CO4)CC2)c1C returned Ecoli rRNA inh -4, ALR H2O2 inh 0, UCH37 DUB inh 3.1, B2AR ag 0, FGF22 binding inactive, E coli growth 0.68, HNF4A DNA FP 4.5, Ecoli rRNA inh OD600 -25 and Ecoli rRNA inh RFP 4.3.
Screening CC(C)N(C(=O)Cn1cc(S(=O)(=O)CC(=O)NCc2ccccc2)c2ccccc21)C(C)C returned Ecoli rRNA inh 0, ALR H2O2 inh -8, UCH37 DUB inh 0.0, B2AR ag 3, FGF22 binding inactive, E coli growth 0.66, HNF4A DNA FP 1.3, Ecoli rRNA inh OD600 -2 and Ecoli rRNA inh RFP -1.3.
For CCOc1ccc(NC(=O)CN2CCN(CC(=O)Nc3ccc(F)c(F)c3)CC2)cc1 the results were ALR H2O2 inh 4, UCH37 DUB inh 1.8, B2AR ag 2, E coli growth 0.71 and HNF4A DNA FP 1.6.
CC(C)c1ccc(/C=N/n2c(COc3ccccc3)n[nH]c2=S)cc1 was read as Ecoli rRNA inh -7, ALR H2O2 inh 1, B2AR ag 26, FGF22 binding inactive, HNF4A DNA FP -5.6, Ecoli rRNA inh OD600 1 and Ecoli rRNA inh RFP -0.7.
O=C1NC(Cc2ccccc2)c2nc3ccc(F)cc3c(=O)n2-c2ncccc21 (stereo unspecified) was read as Ecoli rRNA inh 4, FGF22 binding inactive, HNF4A DNA FP 1.3, Ecoli rRNA inh OD600 13 and Ecoli rRNA inh RFP -1.9.
Cc1cc(C)cc(OCC(=O)Nc2ccc(N3CCCCC3)cc2)c1 was read as Ecoli rRNA inh 6, UCH37 DUB inh -0.1, B2AR ag 3, FGF22 binding inactive, E coli growth 0.69, HNF4A DNA FP 0.4, Ecoli rRNA inh OD600 10 and Ecoli rRNA inh RFP -1.5.
Screening CCOc1ccccc1NC(=O)c1ccc2nc[nH]c2c1 returned Ecoli rRNA inh -4, ALR H2O2 inh 7, UCH37 DUB inh 3.2, B2AR ag 7, FGF22 binding inactive, E coli growth 0.72, HNF4A DNA FP -1.1, Ecoli rRNA inh OD600 -12 and Ecoli rRNA inh RFP -0.9.
O=C(NCCCN1CCCC1=O)c1ccc(NS(=O)(=O)c2ccc(F)cc2)cc1 was read as Ecoli rRNA inh 5, ALR H2O2 inh -14, UCH37 DUB inh 1.4, B2AR ag -6, FGF22 binding inactive, E coli growth 0.68, HNF4A DNA FP 0.4, Ecoli rRNA inh OD600 8 and Ecoli rRNA inh RFP 0.2.
CN(C1=NS(=O)(=O)N=C(N(C)c2ccccc2)O1)c1ccccc1 was read as Ecoli rRNA inh 7, FGF22 binding inactive, HNF4A DNA FP -3.6, Ecoli rRNA inh OD600 7 and Ecoli rRNA inh RFP 8.7.
`O=C1CS(=O)CN1c1ccc(Oc2ccccc2)cc1` (stereo unspecified) gave Ecoli rRNA inh 9, ALR H2O2 inh -10, UCH37 DUB inh 2.4, B2AR ag -15, FGF22 binding inactive, E coli growth 0.73, HNF4A DNA FP 0.9, Ecoli rRNA inh OD600 1 and Ecoli rRNA inh RFP 0.9.
`CC(=O)N(Cc1ccc(F)cc1)Cc1nc2ccccc2c(=O)[nH]1` gave Ecoli rRNA inh 4, ALR H2O2 inh -4, UCH37 DUB inh -1.1, B2AR ag 2, FGF22 binding inactive, E coli growth 0.69, HNF4A DNA FP -4.0, Ecoli rRNA inh OD600 -5 and Ecoli rRNA inh RFP 0.4.
`CCOc1ccc(C(=O)N/N=C(\c2ccccc2)c2ccccn2)cc1` gave ALR H2O2 inh 0, B2AR ag 8 and HNF4A DNA FP 2.9.
For Cc1cc(C(=O)OCC(=O)NC2CCS(=O)(=O)C2)c(C)n1-c1ccccc1 (stereo unspecified) the results were UCH37 DUB inh 2.4, B2AR ag 1, E coli growth 0.7 and HNF4A DNA FP -1.0.
O=C(O)C1CCCN(S(=O)(=O)c2ccc(-c3ccc(=O)[nH]n3)s2)C1 (stereo unspecified) was read as Ecoli rRNA inh 14, ALR H2O2 inh -9, UCH37 DUB inh 0.4, B2AR ag -4, FGF22 binding inactive, E coli growth 0.66, HNF4A DNA FP 1.2, Ecoli rRNA inh OD600 21 and Ecoli rRNA inh RFP -1.1.
Screening COc1ccc(NC(=S)N2CCc3ccccc3C2)cc1 returned Ecoli rRNA inh -4, ALR H2O2 inh -25, UCH37 DUB inh -0.9, B2AR ag -8, FGF22 binding inactive, E coli growth 0.69, HNF4A DNA FP 2.4, Ecoli rRNA inh OD600 -1 and Ecoli rRNA inh RFP -5.6.
COCCN(CC(=O)Nc1cccc(C)c1C)C(=O)CN1C(=O)NC2(CCCCC2)C1=O was read as Ecoli rRNA inh 11, UCH37 DUB inh 2.5, B2AR ag -5, FGF22 binding inactive, E coli growth 0.7, HNF4A DNA FP -0.1, Ecoli rRNA inh OD600 22 and Ecoli rRNA inh RFP -1.7.
CCOC(=O)c1c(-c2ccc(-c3ccccc3)cc2)csc1NC(=O)CCC(=O)O was read as Ecoli rRNA inh -11, ALR H2O2 inh 61, UCH37 DUB inh 9.6, B2AR ag 4, FGF22 binding inactive, E coli growth 0.66, HNF4A DNA FP -1.1, Ecoli rRNA inh OD600 -13 and Ecoli rRNA inh RFP -3.6.
`Cc1cccc(NC(=O)CSc2nnc(CCNC(=O)OC(C)(C)C)o2)c1C` gave ALR H2O2 inh -4, UCH37 DUB inh 3.4, B2AR ag 3, FGF22 binding inactive, E coli growth 0.66 and HNF4A DNA FP -1.4.
`Cc1ccc(C(=O)O/N=C(\N)Cc2cccc3ccccc23)cc1` gave Ecoli rRNA inh -1, ALR H2O2 inh -12, UCH37 DUB inh 1.3, B2AR ag 8, FGF22 binding inactive, E coli growth 0.68, HNF4A DNA FP 3.6, Ecoli rRNA inh OD600 5 and Ecoli rRNA inh RFP 19.
For CCOc1ccc(NC(=O)Nc2ccc3nsnc3c2)cc1 the results were Ecoli rRNA inh 8, ALR H2O2 inh -29, UCH37 DUB inh -3.6, B2AR ag 5, FGF22 binding inactive, E coli growth 0.65, HNF4A DNA FP -2.2, Ecoli rRNA inh OD600 14 and Ecoli rRNA inh RFP -2.7.
`CCOC(=O)CNC(=O)c1cc(-c2ccccn2)nc2c(C)c(Cl)ccc12` gave Ecoli rRNA inh 14, ALR H2O2 inh -4, UCH37 DUB inh 0.3, B2AR ag 4, FGF22 binding inactive, E coli growth 0.71, HNF4A DNA FP 4.8, Ecoli rRNA inh OD600 17 and Ecoli rRNA inh RFP -3.0.
`Cc1cccc(NC(=S)NCCCN2CCOCC2)c1` gave Ecoli rRNA inh 19, UCH37 DUB inh 4.3, B2AR ag -3, FGF22 binding inactive, E coli growth 0.71, HNF4A DNA FP -5.5, Ecoli rRNA inh OD600 20 and Ecoli rRNA inh RFP -1.1.
For CCOC(=O)N1CCN(S(=O)(=O)c2cc(-c3nn4c(C)nnc4c4ccccc34)ccc2C)CC1 the results were ALR H2O2 inh 4, UCH37 DUB inh 1.1, B2AR ag -2, E coli growth 0.71 and HNF4A DNA FP 1.7.
For CN(C)C(=O)CCC(=O)N1CCCC(N2CCN(c3cccc(C(F)(F)F)c3)CC2)C1 (stereo unspecified) the results were Ecoli rRNA inh 8, ALR H2O2 inh 2, UCH37 DUB inh 2.5, B2AR ag 2, FGF22 binding inactive, E coli growth 0.73, HNF4A DNA FP -0.7, Ecoli rRNA inh OD600 19 and Ecoli rRNA inh RFP 1.4.

In the list so far, 3 have a thiophene ring, fused or not.
For COc1ccc(NC(=O)CN2CCN(S(=O)(=O)c3cccs3)CC2)cc1Cl the results were Ecoli rRNA inh -2, UCH37 DUB inh 3.1, B2AR ag 3, FGF22 binding inactive, E coli growth 0.67, HNF4A DNA FP 4.8, Ecoli rRNA inh OD600 -20 and Ecoli rRNA inh RFP 7.2.
O=C(O)C1CCCN(S(=O)(=O)c2ccc(-c3ccc(=O)[nH]n3)s2)C1 (stereo unspecified) was read as Ecoli rRNA inh 14, ALR H2O2 inh -9, UCH37 DUB inh 0.4, B2AR ag -4, FGF22 binding inactive, E coli growth 0.66, HNF4A DNA FP 1.2, Ecoli rRNA inh OD600 21 and Ecoli rRNA inh RFP -1.1.
CCOC(=O)c1c(-c2ccc(-c3ccccc3)cc2)csc1NC(=O)CCC(=O)O was read as Ecoli rRNA inh -11, ALR H2O2 inh 61, UCH37 DUB inh 9.6, B2AR ag 4, FGF22 binding inactive, E coli growth 0.66, HNF4A DNA FP -1.1, Ecoli rRNA inh OD600 -13 and Ecoli rRNA inh RFP -3.6.
